TRPML1 agonist: agonists of human TRPML1 channel; TRPML1-expressing cells, Ca2+ dye fluorescence, FDSS; host cell line not named in the record; reference of the full effect not given here; activation, % (no concentration beside the values); actives 0.12% (n = 410,000); Q9GZU1; in the data active = activation above about 50%; inconclusive = about 30% to 50%; inactive = below about 30%; further: 0% is about no effect; the text of the record puts the active cut at 80%
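Cells: TRPML1-DL, 1X Tet inducer, ~16 h at 37 degrees C/5% CO2. Dye: ABD Ca8 no-wash + quencher, 45-90 min RT. Read: 10 s baseline, compound add, 110 s agonist phase; 54-4 EC80 (4uM final), 110 s antagonist phase.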
Six1-Eya2 blk: inhibitors of human Six1/Eya2 interaction | Q15475+O00167 | AlphaScreen GST-Six1/His-Eya2 binding, biochemical; active compounds read low; control for the full effect not named in the record | activity change, % (test concentration not listed) | actives 0.56% (n = 360,000) | AID 651725; in the data active = activity change below about -65%; inconclusive = about -30% to -65%; inactive = above about -30%; further: on the % scale 0 is the no-effect control and ±100 the full control effect
Target sequence (O00167 whole entry, looked up): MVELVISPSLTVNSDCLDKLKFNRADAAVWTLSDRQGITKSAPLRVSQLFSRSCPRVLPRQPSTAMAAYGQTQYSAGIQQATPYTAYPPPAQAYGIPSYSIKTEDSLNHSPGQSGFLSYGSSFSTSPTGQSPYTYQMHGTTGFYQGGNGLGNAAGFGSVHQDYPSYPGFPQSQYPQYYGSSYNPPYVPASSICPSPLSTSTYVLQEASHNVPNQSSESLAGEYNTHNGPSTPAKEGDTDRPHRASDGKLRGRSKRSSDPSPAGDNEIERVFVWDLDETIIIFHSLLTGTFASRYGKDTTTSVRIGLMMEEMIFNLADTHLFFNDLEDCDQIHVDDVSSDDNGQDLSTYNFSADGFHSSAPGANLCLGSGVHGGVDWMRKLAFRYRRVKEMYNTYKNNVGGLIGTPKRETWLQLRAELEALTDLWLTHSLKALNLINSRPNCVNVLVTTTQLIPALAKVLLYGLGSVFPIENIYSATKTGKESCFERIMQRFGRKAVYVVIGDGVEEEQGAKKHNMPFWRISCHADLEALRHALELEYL
Target sequence (Q15475 whole entry, looked up): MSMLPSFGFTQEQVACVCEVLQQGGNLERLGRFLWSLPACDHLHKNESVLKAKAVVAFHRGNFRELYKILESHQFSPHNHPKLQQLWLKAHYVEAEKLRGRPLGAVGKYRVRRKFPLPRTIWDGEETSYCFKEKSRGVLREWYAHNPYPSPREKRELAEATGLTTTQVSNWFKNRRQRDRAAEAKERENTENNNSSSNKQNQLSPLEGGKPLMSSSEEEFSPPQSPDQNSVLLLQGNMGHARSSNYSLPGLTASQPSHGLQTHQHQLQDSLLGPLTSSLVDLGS
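GST-Six1 + His-Eya2 (5X stock: 250/500 nM); Tris pH 8.0, 300 mM NaCl, 0.05% BSA, 0.02% Tween 20; GSH donor/Ni acceptor beads; 1 h 37 °C dark; AlphaScreen readout.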
PINK1 modulator: PINK1 expression modulation. AID 624263. actives 0.2% (n = 410,000). PINK1 immunofluorescence, high-content cytometry, 24 h. Potency, µM (highest dose often 76.6 µM), inactives show top-dose activation (PINK1 increase), hits mostly activators; active = well fitted activation curve with a large enough effect; inconclusive = small, poorly fitted or top-dose-only effect; inactive = flat fitted curve, though single readings scatter; cell line not stated here;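 further: potency means the concentration at half of the fitted maximal effect; % of control where 0% means no effect; nearly all actives have a fitted effect of over 65% in size; a mitochondrial uncoupler was the plate control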
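Compound titrations (5 concentrations, 24 h) on a stable cell line; DMSO and CCCP controls. Endpoint: fixed-cell PINK1 immunofluorescence with mitochondrial, cell and nuclear markers, scanned by microplate cytometer.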
CtBP-E1A blk: blocks the CtBP interaction with E1A; AlphaScreen GST-E1A/His-CtBP binding, 1536-well; active compounds read low; control for the full effect not named in the record; activity change, % (test concentration not listed); AID 651724; actives 0.49% (n = 340,000); in the data active means activity change below about -65%; inconclusive means about -30% to -65%; inactive means above about -30%; further: on the % scale 0 is the no-effect control and ±100 the full control effect
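Steps: dispense buffer (Tris pH 8.0, NaCl 300 mM, TCEP 1 mM, BSA, Tween 20); add 5X protein mix (GST-E1A, His-CtBP, 125 nM each); pin 23 nL compound; 2 h at 37 °C, dark; add 5X beads (50 ug/mL); 1 h; read.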
TRPML1 inh: blocks the human TRPML1 channel; TRPML1-inducible cells, Ca2+ dye fluorescence, FDSS; active compounds read low; inhibition of EC80 agonist-evoked calcium signal; activity change, negative = inhibition, % (no concentration beside the values); actives 0.02% (n = 390,000); in the data active means activity change below about -50%; inconclusive means about -30% to -50%; inactive means above about -30%;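 further: stimulus is agonist 54-4 at its EC80 concentration; on the % scale 0 is the no-effect control and ±100 the full control effect; compound concentration not given in the record; the text of the record puts the active cut at -80%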
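Calcium fluorescence in TRPML1-DL cells induced overnight with Tet: a 110 s read after compound pin addition, then a 110 s antagonist read after challenge with 54-4 at 4 uM final (EC80).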
D2 agonist: activates the human D2 dopamine receptor; activation, % (test concentration not listed); AID 624465; actives 0.084% (n = 360,000); DiscoveRx PathHunter D2 beta-arrestin, luminescence, 90 min; 100% = 57 uM dopamine signal; in the data active = activation above about 40%; inconclusive = about 15% to 40%; inactive = below about 15%; further: compound concentration not given in the record; the text of the record calls up to 30% inactive
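DiscoveRx PathHunter D2 beta-arrestin cells (2,100/well) attached overnight, then compound-stimulated 90 min at 37 C in HBSS/10 mM HEPES/0.1% Tween-20 buffer; beta-galactosidase complementation read by luminescence after 1 h at ambient temperature. Dopamine 57 uM final (EC100) as control.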
* = called active by the depositor; ? = inconclusive; · = not tested or not shown; & = joins results of further samples; [ ] = dose if it differs, or a comment. The order is random; any-hit rate near 1%.

SMILES	TRPML1 agonist	Six1-Eya2 blk	PINK1 modulator	CtBP-E1A blk	TRPML1 inh	D2 agonist
Nc1ncnc2c1ncn2[C@@H]1O[C@H](CCC(=O)NCc2ccccc2)[C@@H](O)[C@H]1O	-0.3	-19	2.0%	1	·	-2.0
CCOC(=O)Cc1csc(NC(=O)c2c(-c3c(F)cccc3Cl)noc2C)n1	-0.1	-1	0.1%[38.3 µM]	0	29	-1.8
COc1cccc(-n2ccnc2SCC(=O)Nc2cc(C)on2)c1	-0.1	5	1.9%	5	25	-4.1
CCOCCn1c(SCc2ccc(C)cc2)nc2c1c(=O)[nH]c(=O)n2C	-0.5	-1	1.7%	0	3	-5.0
CC(/C=C/C(=O)c1ccc(C)cc1)=C\c1ccccc1	1.3	6	9.1%	15	24	-0.7
COc1ccc(/C=C/C(O)=C2/C(=O)NC3(C)CC2c2ccccc2O3)c(OC)c1OC (stereo not given)	-0.5	4	4.9%	·	20	-3.0
O=C(CC(NCc1ccccn1)C(=O)O)Nc1ccccc1Cl (stereo not given)	-0.1	-91*	2.2%	-89*	49	3.7
C[C@@H]1CCCCO[C@H](CN(C)Cc2ccccc2)[C@@H](C)CN([C@H](C)CO)C(=O)c2cc(NS(=O)(=O)c3ccc(Cl)cc3)ccc2O1	-0.1	-3	8.1%	-6	9	-5.6
N#CCSc1ccccc1NC(=O)COC(=O)Cc1c[nH]c2ccccc12	-0.5	-3	-0.8%	5	-9	4.9
Cc1[nH][nH]c(=O)c1C(c1ccc(F)cc1)c1c(C)[nH][nH]c1=O	·	-2	0.5%	·	·	5.3
CCOC(=O)CSc1nc2c(sc3ccccc32)c(=O)n1Cc1ccc(OC)cc1	-0.5	·	-1.4%	·	-5	·
CCC(C)NC(=O)C1CCCN(c2nc(C)cc(OC)n2)C1 (stereo not given)	-0.1	0	-0.9%	2	16	-4.4
COc1ccccc1NC(=O)c1cc2c(CO)cnc(C)c2oc1=Nc1ccccc1	-1.1	4	5.8%	-4	-3	-3.0
CN(Cc1ccccc1)S(=O)(=O)c1ccc(NS(C)(=O)=O)cc1	2.3	1	-1.0%[38.3 µM]	16	40	1.0
O=C(CSc1nnc(COc2cccc3cccnc23)o1)c1ccc(F)cc1	0.7	-1	·	6	1	1.2
CCCCCCCC[n+]1c(C)n(-c2ccccc2)c2ccc(NC(C)=O)cc21	0.2	-2	12%	0	-5	0.9
O=C1[C@H]2[C@@H](c3ccc(Cl)cc3)N3C(=O)N(c4cccc(F)c4)C(=O)[C@@]3(Cc3ccc(Cl)cc3)[C@H]2C(=O)N1C1CCCCC1	1.6	-6	2.2%	-11	38	-2.5
CN1C(=O)C(C)(C)c2cc(S(=O)(=O)N3CCCC3C(=O)Nc3ccc(F)cc3)ccc21 (stereo not given)	-0.3	·	1.3%	·	25	·
Cc1cccc(C)c1OCC(=O)N1CCC(c2nc3ccccc3o2)CC1	2.6	·	0.2%	·	-16	·
CC(C)c1ccc(NC(=O)CCS(=O)(=O)c2cccc3nonc23)cc1	0.9&0.9	7	-1.2%&-0.4%	4	35&5	-4.2
CC(C)=CCC/C(C)=C/CNC(=O)C[C@H]1C[C@H](C(=O)N(C(C)C)C(C)C)[C@@]2(C)c3[nH]c4ccc(Cl)cc4c3CCN2C1=O	-0.8	-3	1.1%	1	5	-2.4
CCOc1ccc2[nH]c(=O)c(=O)[nH]c2c1	-0.5	-6	-1.0%	-7	46	0.2
COc1ccc(C(C)=O)cc1COC(=O)CCC(=O)c1cccs1	-0.2	0	0.7%	·	-7	5.5
N#Cc1ccc(NC(=O)c2cc(-c3cccs3)on2)cc1	0.5	3	-0.7%	-2	-20	-1.9
O=S1(=O)CCC(SCc2nc3sccn3c2Br)C1 (stereo not given)	0.5	5	-6.6%[38.3 µM]	1	8	-1.3
O=[N+]([O-])c1cccc(CSc2ncnc3ccccc23)c1	1.0	-21	-0.9%	·	7	4.0
COc1ccc(C(C)NC(=O)c2ccccc2Br)cc1OC (stereo not given)	0.4	22	0.9%	·	-1	9.5
CC1CCN(C(=O)COC(=O)c2ccccc2NCCO)CC1	-0.5	1	-1.2%	-6	2	-2.2
O=[N+]([O-])c1ccc(N2CCN(CC(O)COc3ccccc3)CC2)cc1 (stereo not given)	5.8	-6	1.4%	-1	8	-2.0
CCOC(=O)C(=CNc1ccc(NC2=NCC(C)S2)cc1)C(=O)OCC (stereo not given)	1.3	0	6.6%	-2	46	11

A draw from above in order of molecular weight, rising:
SMILES	TRPML1 agonist	Six1-Eya2 blk	PINK1 modulator	CtBP-E1A blk	TRPML1 inh	D2 agonist
CCOc1ccc2[nH]c(=O)c(=O)[nH]c2c1	-0.5	-6	-1.0%	-7	46	0.2
O=[N+]([O-])c1ccc(N2CCN(CC(O)COc3ccccc3)CC2)cc1 (stereo not given)	5.8	-6	1.4%	-1	8	-2.0
COc1ccc(C(C)NC(=O)c2ccccc2Br)cc1OC (stereo not given)	0.4	22	0.9%	·	-1	9.5
O=S1(=O)CCC(SCc2nc3sccn3c2Br)C1 (stereo not given)	0.5	5	-6.6%[38.3 µM]	1	8	-1.3
CCOC(=O)C(=CNc1ccc(NC2=NCC(C)S2)cc1)C(=O)OCC (stereo not given)	1.3	0	6.6%	-2	46	11
O=C1[C@H]2[C@@H](c3ccc(Cl)cc3)N3C(=O)N(c4cccc(F)c4)C(=O)[C@@]3(Cc3ccc(Cl)cc3)[C@H]2C(=O)N1C1CCCCC1	1.6	-6	2.2%	-11	38	-2.5

Remaining list, next part.
SMILES	TRPML1 agonist	Six1-Eya2 blk	PINK1 modulator	CtBP-E1A blk	TRPML1 inh	D2 agonist
Cc1cc(C)c(S(=O)(=O)N(C)CC(=O)NCc2ccncc2)c(C)c1	1.0	-1	1.1%	2	36	0.1
O=C(Cc1ccc([N+](=O)[O-])cc1)NCC1CCCO1 (stereo not given)	0.3	0	-2.4%	3	-9	-1.1
O=C(/C=C/c1ccccc1Cl)NCCN1CCOCC1	-0.4	4	7.4%[38.3 µM]	102	4	-1.1
CCN(CC(=O)Nc1ccc(S(=O)(=O)N2CCCC2)cc1)CC(=O)Nc1cccc(OC)c1	-0.6	9	1.7%	9	13	-2.0
CCS(=O)(=O)N1CCC(N2CCC(C)CC2)CC1	·	3	1.2%	2	·	-3.9
CCC(Sc1nc2ccccc2c2nc(-c3ccccc3)nn12)C(=O)Nc1cccc(OC)c1 (stereo not given)	0.3	·	0.0%	·	1	·
O=C(C1CCCN(S(=O)(=O)c2cccc3nonc23)C1)N1CCN(c2ccccc2)CC1 (stereo not given)	-0.2	-9	·	5	-2	-1.0
CCc1ccc(Nc2nc(C)cc(C)n2)cc1	-0.8	-5	3.8%	10	-1	-4.4
O=C(NCc1cccnc1)C1CCCCN1S(=O)(=O)c1ccc(F)cc1 (stereo not given)	-0.1	5	3.5%[38.3 µM]	1	-3	-0.3
CC1(C(=O)NCCc2ccccc2)Cc2c(-c3ccc4c(c3)OCO4)ccnc2O1 (stereo not given)	-0.7	-8	7.3%	-3	·	-5.2
COc1ccc(NC(=O)C2CCCN(S(=O)(=O)c3c(C)n[nH]c3C)C2)cc1OC (stereo not given)	0.1&-0.6	-6	2.3%&1.0%	-5	2&18	-7.7
Cc1c(C(=O)NCc2ccccn2)oc2c(Cl)cccc12	0.1	5	-0.3%	-14	13	-3.5
CCS(=O)(=O)N1Cc2ccccc2CC1C(=O)Nc1ccc(NC(C)=O)cc1 (stereo not given)	0.2	3	0.4%	1	8	1.9
O=C(NNC(=O)c1ccccc1-n1cccc1)c1cccc(Cl)c1	-1.0	-2	0.6%	3	16	-4.1
COc1ccccc1CC(=O)NNC(=O)c1ccco1	0.0	-5	-0.2%	-3	-15	-2.6

Fetched one by one from the entries so far (two):
SMILES	TRPML1 agonist	Six1-Eya2 blk	PINK1 modulator	CtBP-E1A blk	TRPML1 inh	D2 agonist
CCN(CC(=O)Nc1ccc(S(=O)(=O)N2CCCC2)cc1)CC(=O)Nc1cccc(OC)c1	-0.6	9	1.7%	9	13	-2.0
CC1(C(=O)NCCc2ccccc2)Cc2c(-c3ccc4c(c3)OCO4)ccnc2O1 (stereo not given)	-0.7	-8	7.3%	-3	·	-5.2

The list continues:
SMILES	TRPML1 agonist	Six1-Eya2 blk	PINK1 modulator	CtBP-E1A blk	TRPML1 inh	D2 agonist
CCCCN(C)C1CCN(C(=S)Nc2cccc(SC)c2)CC1	-1.0	1	1.6%	-3	4	-2.0
CC1=CC(C)(C)NC(=S)N1c1ccccc1	-0.8	24	0.6%[38.3 µM]	47	-17	-0.2
CCN1CCN(P2(=O)C=C(c3ccccc3)OC(c3ccccc3)=C2)CC1	-0.4	-5	7.9%[38.3 µM]	-1	0	2.2
CCC1=C2CC[C@H]3C(=O)N(C)C(=O)[C@H]3[C@H]2[C@@]2(Cc3ccccc3)C(=NCCOC)OC(=O)N2C1=O	-0.6	6	0.1%	9	-7	-0.6
CN(C)c1ccnc(Oc2ccc(F)cc2)c1C#N	-0.5	2	·	5	9	1.4
Cc1ccc(-c2cnc(C(O)c3cc(F)cc(Cl)c3)[nH]2)cc1 (stereo not given)	-0.5	-18	5.2%	-10	·	4.7
Cc1cc(=O)n2[nH]cnc2n1	0.7	9	-0.7%	-2	20	-0.8
Cc1cc(C(F)(F)F)n(-c2nc(C(=O)Nc3cccnc3)cs2)n1	0.2	-9	-1.0%	-2	0	-1.1
O=C(Nc1cccnc1)c1ccc(NS(=O)(=O)c2cccc([N+](=O)[O-])c2)cc1	0.0	-8	2.1%	-3	17	-5.3
Cc1cc(C)c(NC(=O)CSCc2c(C)noc2C)c(Cl)c1	-0.1	-3	-0.4%	11	15	-4.0
CCOC(=O)c1sc(NC(=O)CCCCl)nc1C	0.1	0	3.6%	2	-20	-2.6
Cc1cc(F)ccc1NCc1ccccc1[N+](=O)[O-]	1.1	?	16%	?	5	1.8
O=C(CSc1nnc(NC(=O)c2c(F)cccc2F)s1)NC1CCCC1	-0.2	6	3.3%	8	6	0.0
COc1ccc(S(=O)(=O)NCC2CCC(C(=O)O)CC2)cc1 (stereo not given)	0.6	12	0.8%	·	9	0.2
CCOC(=O)Cc1csc(NC(=O)c2cccc([N+](=O)[O-])c2)n1	0.0	-3	0.8%	-1	-2	1.1
Cc1nc2cc(NC(=O)Nc3cccc4ccccc34)ccc2n1C	1.1	4	2.3%	6	-18	-0.1
O=S(=O)(c1ccc(Cl)nc1)N(Cc1ccccc1)Cc1ccccc1	2.6	44	-1.5%	55	12	0.4
Cc1ccc(S(=O)(=O)N2CCN(C(=O)Cc3ccccc3)CC2)cc1C	0.4	-3	0.8%	2	-12	-1.6
CCOc1ccc(CCNC(=O)CSc2nnnn2-c2ccccc2Cl)cc1OCC	2.3	·	0.6%	·	?	·
CCOC(=O)CSc1nc2sc3c(c2c(=O)n1Cc1ccccc1)CC(C)CC3 (stereo not given)	0.1	·	-0.1%	·	22	·
CCOC(=O)C1C(=O)CC(C)(O)C(C(=O)OCC)C1c1cccc(OC)c1 (stereo not given)	-0.5	5	-0.4%[38.3 µM]	8	4	-1.4
COc1cc2[nH]c(=O)n(Cc3ccc(C(=O)NCCCN4CCN(C)CC4)cc3)c(=O)c2cc1OC	-0.8	-22	-3.3%	-15	-10	-2.9
O=C(O)CCCNC(=O)c1ccccn1	0.4	37	-0.8%	3	5	-0.3

Source: PubChem
